D2 potentiator = potentiates the human D2 dopamine receptor allosterically | P14416 | DiscoveRx D2 beta-arrestin cells, luminescence, 90 min; 100% = 57 uM dopamine signal | potentiation, % (no concentration beside the values) | actives 0.23% (n = 360,000) | AID 624464; active = potentiation of 50% or more; inconclusive = 30% to 50%; inactive = 30% or less;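 also: compound concentration not given in the record; tested on top of an EC20 dose of dopamine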
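D2 cells co-treated with compound plus 50 nM dopamine (EC20) for 90 min at 37 deg C to detect potentiation. Beta-arrestin recruitment was read as enzyme-fragment luminescence after 1 h at ambient temperature. Full response was set by 57 uM dopamine.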
TRPV1 PAM = human TRPV1 potentiation. actives 0.02% (n = 320,000). AID 540277. TRPV1-expressing cells, Fluo-8 calcium influx, capsaicin EC20 potentiation; host cell line not named in the record; control for the full effect not named in the record. potentiation, % at 8.33 µM. Q8NER1; active means potentiation above 80%; inconclusive means 30% to 80%; inactive means below 30%; also: 0% is about no effect
Target sequence (Q8NER1 whole entry, looked up): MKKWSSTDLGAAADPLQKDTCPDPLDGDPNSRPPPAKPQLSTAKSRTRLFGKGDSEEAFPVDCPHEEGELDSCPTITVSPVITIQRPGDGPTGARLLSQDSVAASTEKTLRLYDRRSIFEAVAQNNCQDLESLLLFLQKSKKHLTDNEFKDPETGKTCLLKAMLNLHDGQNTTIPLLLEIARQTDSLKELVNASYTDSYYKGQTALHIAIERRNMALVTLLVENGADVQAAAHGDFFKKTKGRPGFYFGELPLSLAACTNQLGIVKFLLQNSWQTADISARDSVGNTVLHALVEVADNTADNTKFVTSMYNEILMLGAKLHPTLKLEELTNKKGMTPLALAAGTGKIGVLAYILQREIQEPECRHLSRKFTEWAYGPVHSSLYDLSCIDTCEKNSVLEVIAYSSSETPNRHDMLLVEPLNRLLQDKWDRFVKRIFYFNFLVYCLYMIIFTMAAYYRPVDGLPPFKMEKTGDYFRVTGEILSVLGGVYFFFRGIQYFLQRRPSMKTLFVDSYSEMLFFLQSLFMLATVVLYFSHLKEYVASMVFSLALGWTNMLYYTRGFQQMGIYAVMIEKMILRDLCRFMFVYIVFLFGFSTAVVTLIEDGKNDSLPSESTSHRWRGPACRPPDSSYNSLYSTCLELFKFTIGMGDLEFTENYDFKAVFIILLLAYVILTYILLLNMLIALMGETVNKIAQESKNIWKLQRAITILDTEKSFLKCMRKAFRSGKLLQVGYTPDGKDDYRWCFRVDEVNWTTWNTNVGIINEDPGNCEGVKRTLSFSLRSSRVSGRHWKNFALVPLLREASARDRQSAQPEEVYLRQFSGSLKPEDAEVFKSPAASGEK
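Fluo-8 calcium influx in TRPV1-expressing cells, kinetic read (ex 480/em 520 nm). Compound added and read 3 min for agonist activity, followed by capsaicin at EC20 final and 2 min further read for enhancement.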
Six1-Eya2 blk = Six1/Eya2 interaction inhibition. Q15475+O00167. AlphaScreen GST-Six1/His-Eya2 binding, biochemical; hits give low values; control for the full effect not named in the record. activity change, % (concentration not given with the values). actives 0.56% (n = 360,000). AID 651725; in the data active = activity change below about -65%; inconclusive = about -30% to -65%; inactive = above about -30%; also: % is scaled to controls: 0 for no effect and ±100 for the full control effect
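GST-Six1 + His-Eya2 (5X stock: 250/500 nM); Tris pH 8.0, 300 mM NaCl, 0.05% BSA, 0.02% Tween 20; GSH donor/Ni acceptor beads; 1 h 37 °C dark; AlphaScreen readout.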
TRPML1 blocker = inhibitors of human TRPML1 channel; activity change, negative = inhibition, % (no concentration beside the values); AID 624415; TRPML1-inducible cells, Ca2+ dye fluorescence, FDSS; hits give low values; inhibition of EC80 agonist-evoked calcium signal; actives 0.02% (n = 390,000); Q9GZU1; in the data active means activity change below about -50%; inconclusive means about -30% to -50%; inactive means above about -30%;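 also: stimulus is agonist 54-4 at its EC80 concentration; % is scaled to controls: 0 for no effect and ±100 for the full control effect; compound concentration not given in the record; the text of the record puts the active cut at -80%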
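TRPML1-DL cells, Tet-induced overnight (~16 h, 37 °C) at 1,500 cells/well, were loaded with Ca8 no-wash dye plus quencher for 45-90 min at room temperature. Compounds were pinned during FDSS kinetic reading; agonist 54-4 at EC80 (4 uM final) then added.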
TRPML1 agonist = activates the human TRPML1 channel | activation, % (test concentration not listed) | actives 0.12% (n = 410,000) | Q9GZU1 | TRPML1-expressing cells, Ca2+ dye fluorescence, FDSS; host cell line not named in the record; reference of the full effect not given here; in the data active = activation above about 50%; inconclusive = about 30% to 50%; inactive = below about 30%; also: 0% is about no effect; the text of the record puts the active cut at 80%
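In this qHTS format, compounds were pin-transferred onto Ca8-dye-loaded TRPML1-DL cells induced with Tet overnight, and intracellular Ca2+ fluorescence was recorded kinetically for 110 s after a 10 s baseline. A subsequent 4uM final 54-4 (EC80) addition followed by a second 110 s read served as the antagonist phase.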
CtBP-E1A blk = CtBP/E1A binding inhibition. AlphaScreen GST-E1A/His-CtBP binding, 1536-well; hits give low values; control for the full effect not named in the record. activity change, % (no concentration beside the values). actives 0.49% (n = 340,000). AID 651724; in the data active means activity change below about -65%; inconclusive means about -30% to -65%; inactive means above about -30%; also: % is scaled to controls: 0 for no effect and ±100 for the full control effect; compound concentration not given in the record
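AlphaScreen with 125 nM GST-E1A and 125 nM His-CtBP (5X stocks) in Tris pH 8.0, 300 mM NaCl, BSA, Tween 20, TCEP. Compounds preincubated 2 h at 37 deg C, then glutathione donor/nickel acceptor beads added for 1 h at 37 deg C in dark.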
An asterisk follows results filed as active; ? = inconclusive; / = no result given; & = joins results of further samples.

SMILES	D2 potentiator	TRPV1 PAM	Six1-Eya2 blk	TRPML1 blocker	TRPML1 agonist	CtBP-E1A blk
CC1(c2ccccc2)NC(=S)N2C1NC(=S)N2c1ccccc1 (stereo not given)	-13	-5	-3	26	0.4	-9
CC(C)CN(CC(C)C)C(=O)CCCC(=O)N(CC(C)C)CC(C)C	-8	-10	-2	-4	1.0	2
O=c1cc(CSc2ccc(Cl)cc2)[nH]c2[nH]n(-c3ccccc3)c(=O)c12	-8	4	-4	22	-0.3	1
Cc1cccc(Oc2ncccc2[N+](=O)[O-])c1C	7	/	-4	-7	-0.1	-6
O=C(N/N=C1\CCCCc2ccccc21)c1ccccn1	-5	-4	-18	-13	1.1	/
O=C(NNc1ccccc1)OCc1ccccc1	-19	/	3	17	0.7	-6
CCCCNC(=O)C1CCCN(S(=O)(=O)c2ccc(-n3cnnn3)cc2)C1 (stereo not given)	-17	2	-7	44	0.9	-5
COc1cc(CNc2ncnc3c2ncn3[C@H]2CN(Cc3ccc(Cl)cc3)C[C@@H](CO)O2)cc(OC)c1OC	10	/	-6	/	-0.3	-16
Cc1cc(NC(=O)c2noc3c2CCCC3)nn1Cc1ccc(Cl)cc1	-2	0	-4	3	2.2	0
CCOC(=O)C1CCCN(C(=O)c2ccc(F)c(C)c2)CC1 (stereo not given)	-2	/	-7	/	-0.6	-5
Cc1cccc(N2CCN(c3ccc(C(N)=O)cc3[N+](=O)[O-])CC2)c1C	-7	5	-5	-20	0.7	8
CCCCN(CCCC)c1nn[nH]n1	-5	/	-2	-4	-0.9	15
CC(=O)CNc1ccc(S(=O)(=O)N/N=C/c2ccccc2)cc1	0	3	-1	16	-0.1	-9
CC(C)C[C@@H](CSc1ccccc1)N1CCN(C)CCC1=O	-13	-6	4	5	0.4&0.2	/
O=C(COc1ccccc1)N[C@@H]1c2ccccc2CC[C@@H]1OCc1ccccc1	-6	/	-6	-9	-0.1	-9
Cc1ccc(CNC(=O)C2CCC(CNc3c(N4CCC(C)CC4)c(=O)c3=O)CC2)cc1 (stereo not given)	0	-14	11	5	2.4	8
CCc1nccn1CCC(=O)N1CCCC(Nc2ccc(C(C)C)cc2)C1 (stereo not given)	9	-25	0	13	-0.5	-4
Clc1ccc(OCCn2cnc(Cl)c2Cl)cc1	-2	-4	-4	0	1.6	-22
COc1ccc(OC)c(NC(=O)NC2(C(F)(F)F)Oc3ccccc3O2)c1	6	6	2	-12	0.1	6
CCN(Cc1ccc(OC)c(F)c1)C(=O)C1CCCO1 (stereo not given)	-3	-3	3	-5	-0.2	1
Cc1ccc(CCNC(=O)CN(C)S(=O)(=O)c2ccc3c(c2)n(C)c(=O)c(=O)n3C)cc1	-3	-9	-5	5	0.2	4
COc1ccccc1N1CCN(C(=O)CCn2c(=O)[nH]c3ccccc3c2=O)CC1	-8	7	3	1	-1.2	3
CN(C)c1ccc(C(=O)OCC(=O)c2cccs2)cc1	5	0	1	18	1.2	1
COc1ccc(CCNC(=O)C2CC(c3ccccc3[N+](=O)[O-])=NO2)cc1 (stereo not given)	-4	-3	2	-11	-0.1	4
CCn1c(-c2cc(Cl)ccc2OC)n[nH]c1=S	-2	4	6	22	-0.9	2
Going on with the list.
SMILES	D2 potentiator	TRPV1 PAM	Six1-Eya2 blk	TRPML1 blocker	TRPML1 agonist	CtBP-E1A blk
CC(NS(=O)(=O)c1ccccc1)C(=O)Nc1ccc(S(N)(=O)=O)cc1 (stereo not given)	8	-1	2	-20	-0.1	-1
N#CC1=C(N)N(c2ccc(Cl)c(Cl)c2)C(=O)C1	-6	24	2	27	0.1	9
O=C(COc1ccc(Br)cc1)NCCCNC(=O)c1cnccn1	1	2	0	18	0.3	4
CCC(=O)Nc1ccc(C(=O)CSc2nc3ccccc3[nH]2)cc1	4	-17	-3	10	-0.3	2
CCOC(=O)C1(CCCc2ccccc2)CCN(CCCn2cccn2)CC1	-12	8	-3	-3	0.8	/
COc1cccc(/C=C2\N=C3CCCCCN3C2=O)c1	-1	-28	4	2	-0.5	6
CN(C(=O)c1ccncc1)c1nnc(-c2ccncc2)s1	-11	-9	-1	17	-0.9	-3
CCN(CC)c1ccc(NC(=O)CN2C(=O)CSc3ncccc32)c(C)c1	-4	1	3	2	0.1	3
CCN(C[C@H]1N[C@@](CC)(C(=O)OC)[C@H]2C(=O)N(C)C(=O)[C@@H]12)C(C)=O	10	/	14	21	3.9	4
Cc1nnc(SCC(=O)Nc2ncc(Cc3ccc(F)cc3)s2)n1N	-41	10	3	-1	-0.7	-2
COc1cc2cc(CCCOC(=O)c3ccc(F)cc3)oc(=O)c2cc1OC	-6	-11	0	34	0.1	6
CCCCCC(=O)N/N=C/c1cccs1	-8	-19	4	-5	-0.1	-3
CCOc1ccc(C(C(=O)NCC2CCCO2)N(Cc2cccnc2)C(=O)c2snc(C(N)=O)c2N)cc1 (stereo not given)	-6	-19	12	5	-1.3	19
Cn1c(Cl)cnc1C(O)c1ccccc1 (stereo not given)	-8	-14	5	14	0.1	4
Cc1ccccc1Nc1ncnc2c1cnn2Cc1ccccc1	-19	-28	-1	-14	-0.2	/
CCCCCC1CC(CC/C(C)=N/NC(N)=O)C(=O)O1 (stereo not given)	-5	-25	6	6	-0.2	11
CC1C(c2ccccc2)C(C#N)(C#N)C2(C#N)C(=O)NC1(N)C2C (stereo not given)	10	18	15	13	-0.9	3
O=C(NCCSCc1ccco1)Nc1ccccc1	0	-17	-2	-9	0.7	2
COC(=O)c1sc(S(=O)(=O)N2CCN(c3ccccc3)CC2)c(C(=O)OC)c1C	-8	19	-17	-19	0.5	-17
Nc1nc(SCc2ccccc2)c2ncn(C3CCCO3)c2n1 (stereo not given)	-3	/	-10	-8	-1.0	3
CC(=O)Nc1ccc(C(=O)N2CCCC2)cc1	-22	-7	8	2	0.0	4
COc1ccc(S(=O)(=O)N2CCN(S(=O)(=O)c3ccc4c(c3)OCCO4)CC2)cc1	-3	9	-1	6	3.1	5
O=C(OCC(=O)N1CCC(Cc2ccccc2)CC1)c1ccccc1NCCO	0	-1	9	-6	2.5	3
Cc1ccc2nc(N(CCN(C)C)C(=O)c3ccc4c(c3)OCCO4)sc2c1	-20	-4	-15	-6	-0.6	-10
Cc1ccc(S(=O)(=O)N(C)C)cc1NC(=O)C(C)OC(=O)c1ccc2c(c1)OCCO2 (stereo not given)	-8	-12	0	-3	0.6	3

Next part; the last five above are carried over.
SMILES	D2 potentiator	TRPV1 PAM	Six1-Eya2 blk	TRPML1 blocker	TRPML1 agonist	CtBP-E1A blk
CC(=O)Nc1ccc(C(=O)N2CCCC2)cc1	-22	-7	8	2	0.0	4
COc1ccc(S(=O)(=O)N2CCN(S(=O)(=O)c3ccc4c(c3)OCCO4)CC2)cc1	-3	9	-1	6	3.1	5
O=C(OCC(=O)N1CCC(Cc2ccccc2)CC1)c1ccccc1NCCO	0	-1	9	-6	2.5	3
Cc1ccc2nc(N(CCN(C)C)C(=O)c3ccc4c(c3)OCCO4)sc2c1	-20	-4	-15	-6	-0.6	-10
Cc1ccc(S(=O)(=O)N(C)C)cc1NC(=O)C(C)OC(=O)c1ccc2c(c1)OCCO2 (stereo not given)	-8	-12	0	-3	0.6	3
N#Cc1c(NC(=O)c2cccc(S(=O)(=O)Nc3ccc(C(=O)O)cc3)c2)sc2c1CCCC2	-2	-5	?	-22	-0.5	-23
COc1ccc(S(=O)(=O)N2CCC(C(=O)NC3CCCC3)CC2)cc1OC	1	4	4	8	0.7	3
Nc1nc(SCc2ccccc2)cc(SCc2ccccc2)n1	-6	/	1	-1	3.2	20
CC1(C)CC(=O)C2=C(C1)N(CCN1CCOCC1)C1=C(C(=O)CC(C)(C)C1)C2c1cccc(Cl)c1	-10	-5	6	-2	0.4	-1
Cc1cc2ccccc2cc1CN1CCOCC1	-12	-9	5	-6	0.6	0
CC1CC(C)CN(CC(=O)N2CCOCC2)C1 (stereo not given)	-1	1	10	40	-0.6	/
CC(C)c1c(C(=O)N/N=C/c2ccsc2)nnn1-c1nonc1N	-9	-18	2	45	0.2	/
O=C(NC(NC(=S)Nc1ccccc1O)C(Cl)(Cl)Cl)c1ccco1 (stereo not given)	13	-3	4	23	-0.3	-5
CCC1Oc2ccc(C)cc2N(CC(=O)NCCN2C(C)CCCC2C)C1=O (stereo not given)	-11	7	2	-11	0.7	4
CCOC(CNC(=O)Cn1nc(Cc2ccncc2)c2ccccc2c1=O)OCC	3	2	10	-21	-0.3	-1
Cc1ccc(OCC(O)Cn2c(N3CCOCC3)nc3c2c(=O)[nH]c(=O)n3C)cc1 (stereo not given)	-15	-4	-11	20	-1.1	0
Cc1ccc(CN2CCCN(Cc3c(C)cc(C)cc3C)S2(=O)=O)cc1	-5	3	13	53&69	1.8&2.5	/
COC(=O)/C(=C\C=C\c1ccccc1)NC(=O)c1ccccc1	-4	10	9	-18	0.8	-4
CC1=NCCN1CCNC(=O)Nc1ccc(C(C)(C)C)cc1	-7	-11	6	13	0.0	5
CC1(C)SC(=S)N(Cc2ccc3c(c2)OCO3)C1N(O)C(=O)NC1CCCCC1 (stereo not given)	-6	-20	-12	6	-0.3	2
COC(=O)c1ccc(CSc2ccc3nnc(-c4ccccc4)n3n2)o1	8	23	?	15	-0.5	?
Cc1ccc2c(c1)N(Cc1ccc3c(c1)OCO3)C(=O)C(C)O2 (stereo not given)	-12	-13	0	3	2.8	4
COCCSc1nnc(NC(=O)c2ccc3c(c2)OCO3)s1	-10	5	8	16	0.7	10
O=P1(NC2CCCCC2)OCC2(CO1)COP(=O)(NC1CCCCC1)OC2 (stereo not given)	-4	/	-2	19	-0.6	5
COc1cc(Cl)c(C)cc1NC(=O)c1ccccc1-n1cnnn1	1	/	3	-4	-1.1	-3
Cc1coc(C)c1C(=O)CC1(O)C(=O)N(Cc2ccccc2)c2ccccc21 (stereo not given)	2	3	-14	-5	-0.6	-9
CC1C(=O)Nc2ccc(S(=O)(=O)NCCc3ccc(Cl)cc3)cc2NC1=O (stereo not given)	-7	-2	-1	-8	-0.1	-1
Cc1cc(C)nc(N(C#N)CC(=O)Nc2ccccc2)n1	2	-12	13	13	-0.4	-1
CNC(=S)Nc1cccc(S(=O)(=O)NC2=NCCC2)c1	-4	?	5	27	-0.8	0
CCN(CC1COc2ccccc2O1)C(=S)NCCCN(C)C (stereo not given)	-10	-8	-15	-6	0.3	2
O=C(Oc1ccc(C(=S)N2CCC(O)CC2)cc1)c1ccc(Cl)cc1	4	-8	-90*	28	-0.8	-84*
COc1ccccc1S(=O)(=O)Cc1ccc(C(=O)NCCCN2CCN(c3ccc(F)cc3)CC2)o1	-35	29	-6	12	-0.5	-14
COc1ccc(OC)c(NC(=O)c2ccc(CN3CCc4ccccc4C3)cc2)c1	-27	7	-12	/	/	-1

Some of these compounds in order of formula weight, ascending:
SMILES	D2 potentiator	TRPV1 PAM	Six1-Eya2 blk	TRPML1 blocker	TRPML1 agonist	CtBP-E1A blk
COC(=O)/C(=C\C=C\c1ccccc1)NC(=O)c1ccccc1	-4	10	9	-18	0.8	-4
Cc1coc(C)c1C(=O)CC1(O)C(=O)N(Cc2ccccc2)c2ccccc21 (stereo not given)	2	3	-14	-5	-0.6	-9
O=C(Oc1ccc(C(=S)N2CCC(O)CC2)cc1)c1ccc(Cl)cc1	4	-8	-90*	28	-0.8	-84*

Assay outcomes from PubChem.

Rows are unselected; about 0.95% have a hit in one of these screens.
